# Screening data from PubChem.
# KCNQ2 inh – KCNQ2 channel blockers in CHO-K1 cells – cell-based, FluxOR thallium flux, B-score, primary screen (AID 2156); B-score at 10 µM; 310,000 tested, 1.1% active; 20 min; active compounds read low; only compounds with negative scores are shown here; some inactives read as strong as hits;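 active = fluorescence ratio B-score at most minus 3 library SDs, with starting brightness B-score within 2 library SDs, cut at about -5.5 in these data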
# Target sequence (O88943 whole entry, looked up): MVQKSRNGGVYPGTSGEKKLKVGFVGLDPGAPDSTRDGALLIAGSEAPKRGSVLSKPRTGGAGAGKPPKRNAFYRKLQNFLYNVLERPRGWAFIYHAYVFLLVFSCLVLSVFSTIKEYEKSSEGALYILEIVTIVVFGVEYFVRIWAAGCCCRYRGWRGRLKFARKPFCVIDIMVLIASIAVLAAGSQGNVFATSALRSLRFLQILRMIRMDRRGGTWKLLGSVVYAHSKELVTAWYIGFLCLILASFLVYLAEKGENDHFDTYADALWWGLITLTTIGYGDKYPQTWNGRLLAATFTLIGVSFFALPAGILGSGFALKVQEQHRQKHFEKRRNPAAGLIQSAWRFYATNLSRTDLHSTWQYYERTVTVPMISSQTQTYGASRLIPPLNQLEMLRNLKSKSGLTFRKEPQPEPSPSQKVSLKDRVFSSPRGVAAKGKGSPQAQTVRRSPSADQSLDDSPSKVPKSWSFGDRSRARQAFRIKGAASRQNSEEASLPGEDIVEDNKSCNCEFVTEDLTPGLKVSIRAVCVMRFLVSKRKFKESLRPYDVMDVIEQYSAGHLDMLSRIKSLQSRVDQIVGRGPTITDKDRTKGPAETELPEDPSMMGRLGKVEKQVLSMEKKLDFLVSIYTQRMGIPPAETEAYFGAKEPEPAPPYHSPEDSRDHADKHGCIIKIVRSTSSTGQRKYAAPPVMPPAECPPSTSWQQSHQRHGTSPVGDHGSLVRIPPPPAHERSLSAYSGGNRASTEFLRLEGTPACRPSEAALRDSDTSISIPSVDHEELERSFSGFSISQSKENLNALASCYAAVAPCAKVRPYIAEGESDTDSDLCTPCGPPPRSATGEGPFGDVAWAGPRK
# KCNQ2 inh baseline – recorded beside KCNQ2 inh, whose call it bears; B-score; measured here: initial fluorescence intensity artifact check;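 brightness before thallium and not channel activity; 0 = typical well and far values either way flag optical interference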
# The depositor's hits bear a star; i = inactive.
SMILES,KCNQ2 inh,KCNQ2 inh baseline
Cc1cc(C)cc(S(=O)(=O)c2cnc3ccccc3n2)c1,i,-2.07
O=C(NC(Cc1ccccc1)c1ccc2c(c1)OCCCO2)c1ccccc1F (configuration not stated),i,-1.76
Cc1ccc(NCCC(=O)c2ccc(Br)cc2)cc1,i,-0.07
Cc1ccc(C)c(-c2csc(-c3cccnc3)n2)c1,i,1.88
CSCC[C@H](NC(=O)[C@@H]1Cc2ccccc2CN1)C(=O)NC(C)c1ccccc1 (some centres not stated),i,-0.13
N=c1n(Cc2ccccc2)c2ccccc2n1CC(O)COc1ccc(Cl)cc1Cl (configuration not stated),-5.98*,-1.23*
Nc1nc(N2CCCCC2)nc(N(c2ccccc2)c2ccccc2)n1,i,0.46
COc1ccccc1CNC(=O)C(=O)Nc1nccs1,i,-0.07
O=C(Nc1ccc2c(c1)OCCO2)C1CCC1,i,-0.22
COc1ccc(CCN(C)C(=O)c2cc(-c3ccccc3)nc3ccc(C)cc23)cc1OC,-7.11*,-2.47*
COc1ccc(OC)c2[nH]c(=O)c(CCNC(=O)C(=O)c3c(C)[nH]c4ccccc34)cc12,i,0.1
CCCCN1C(=O)C2NN=C(C(=O)OCC)C2C1=O (configuration not stated),i,0.07
Cc1csc(NC(=O)c2cc(-c3ccccc3)nc3ccccc23)n1,i,-0.12
COc1ccc(-c2cnc(SCC(=O)Nc3nc(C(C)(C)C)cs3)n2Cc2ccco2)cc1,-8.27*,1.2*
O=C(NNC(=S)Nc1ccccc1)c1ccco1,i,0.07
CCN(CC)CC(=O)Nc1nc(-c2ccc(Cl)cc2)cs1,i,-1.97
CCc1cccc2c(C#N)cn(CCOc3ccccc3OC)c12,i,0.8
Clc1ccc(N2CCN(c3ncnc4c3oc3ccccc34)CC2)cc1,i,0.4
CC(C(=O)OCC(=O)c1ccc(Br)cc1)N1C(=O)C2C3CCC(C3)C2C1=O (configuration not stated),i,0.04
COc1ccccc1NC1=NC2(CCCC2)N=C(N)N1,i,1.37
O=C(O)CC1S/C(=N/N=C/C2CC=CCC2)NC1=O (configuration not stated),i,0.02
CC/C(=C\C(=O)c1cccnc1)Nc1ccc(C)c(C)c1,i,-0.82
CC(C)(C)C1=Nn2c(nnc2-c2ccco2)SC1,i,0.1
COc1ccc(S(=O)(=O)N2CCCCCC2)cc1C(=O)N(C)CC(=O)Nc1ccccc1Cl,i,-0.49
C=CCSc1nnc(NC(=O)COc2ccc3ccccc3c2)s1,i,-0.02
COc1ccc(NC(=O)/C(C#N)=C/C=C/c2ccco2)cc1,i,1.29
Cc1ccc(/C=N/n2c(COc3ccccc3)n[nH]c2=S)cc1,i,-0.04
Cc1cnc(C(=O)Nc2ccccc2-c2ccc(C)o2)cn1,i,0.32
CC(=O)Oc1ccc(C(=O)Nc2ccc(S(=O)(=O)N3CCOCC3)cc2)cc1,i,0.21
COc1cccc(-c2cccc(NC(=O)C3CCN(Cc4ccon4)CC3)c2)c1,i,-0.73
O=C(NCc1ccco1)C1CCCN1C(=O)Nc1ccccc1Cl (configuration not stated),i,-0.68
CCOC(=O)C1CCN(Cc2nc3ccccc3c(=O)n2-c2ccc(F)cc2)CC1,i,0.01
C/C(=N\OC(=O)Nc1ccc(Cl)cc1)c1ccc(F)c(F)c1,i,0.59
O=C(Nc1nnc(S(=O)(=O)N2CCCC2)s1)c1ccccc1Br,i,-0.52
COc1ccc2[nH]c(=O)c(CN(Cc3cccs3)C(=S)Nc3cccc(C)c3)cc2c1,i,0.96
CCOC(=O)C1=C(C)NC(=O)NC1c1cc(C)sc1C (configuration not stated),i,-0.61
CC(C)N(C(=S)Nc1cccc(C(F)(F)F)c1)C(C)c1ccccn1 (configuration not stated),i,0.87
O=C(O)c1ccc(Cl)c(S(=O)(=O)Nc2ccccc2Cc2ccccc2)c1,i,1.65
COc1ccc(N2CCN(C(=O)c3ccccc3N(C)S(=O)(=O)c3ccccc3)CC2)cc1,i,2.23
COc1cc2ccccc2cc1C(=O)Nc1ccc(N2CCN(C)CC2)cc1,i,-3.63
O=C1CN(C(=O)COC(=O)Cc2ccsc2)c2ccccc2N1,i,2
Cc1ccsc1-c1nc(CSCC(=O)NCc2ccc3c(c2)OCO3)c(C)o1,i,-1.06
CS(=O)(=O)c1ccc2nc(NC(=O)C3COc4ccccc4O3)sc2c1 (configuration not stated),i,-0.48
O=S(=O)(c1cccc(-c2nnc(-c3ccc(Br)cc3)o2)c1)N1CCCCCC1,i,0.26
CC(=O)Nc1ccc(S(=O)(=O)NC(C)C(=O)NC(C)c2ccccc2)cc1 (configuration not stated),i,-1.78
O=C(NCc1cccnc1)Nc1cccc(NC(=O)NCc2cccnc2)c1F,i,0.45
CN(C)c1nc(Nc2ccccc2)nc(Oc2ccc(=O)[nH]n2)n1,i,1.16
O=C(NCC(c1ccco1)N1CCc2ccccc2C1)C(=O)Nc1ccc(F)cc1F (configuration not stated),-6.69*,-1.34*
CN(C)c1ccc(NC(=O)CN2C3CCCC2CC(NC(=O)c2ccccc2)C3)cc1 (configuration not stated),i,-3.33
COC(=O)CCCC[C@H]1SC[C@H]2NC(=O)N[C@]21O,i,0.46
COc1ccccc1N1CCN(C2CCN(C(=O)c3cccc(F)c3)CC2)CC1,i,0.94
O=C(CP(=O)(CO)CO)c1ccc(Cl)cc1,i,0.08
Cc1cc2cc(C(c3nnnn3C3CCCC3)N(Cc3cccnc3)Cc3ccco3)c(=O)[nH]c2cc1C (configuration not stated),-6.02*,0.88*
COC(=O)[C@H]1C[C@@H]1[C@H](NS(=O)(=O)c1ccccc1)c1ccccc1,i,-0.21
CC12COC3(C(=O)N4CCN(c5ccccn5)CC4)CC1CCC32C (configuration not stated),i,-0.35
COc1ccc(C)cc1NC(=O)CN(c1ccc(C)cc1)S(C)(=O)=O,i,-0.01
COc1ccccc1CCCNC(=O)C1CCC(=O)N(CCc2ccc(Cl)cc2)C1 (configuration not stated),i,1
CCC(C(=O)O)P(=O)(c1ccc(Cl)cc1)c1ccc(Cl)cc1 (configuration not stated),i,1.05
CN1CCN(CCc2nc3cc(NC(=O)COc4ccc(Cl)cc4)ccc3n2C)CC1,i,0.78
CCc1c(C)sc(NC(=O)c2ccco2)c1C(=O)N1CCCCC1,i,2.96
# Following part:
SMILES,KCNQ2 inh,KCNQ2 inh baseline
C=C(C)Cn1c(C2CC(=O)N(Cc3ccccc3)C2)nc2ccccc21 (configuration not stated),i,-0.72
O=C(c1ccccc1)c1ccc(CN2C(=O)c3ccccc3C2=O)o1,i,-0.01
CCCn1c(NCc2ccc(C)o2)nc2ccccc21,i,0.21
CCCn1cc(S(=O)(=O)CC(=O)N2CCc3ccccc32)c2ccccc21,i,0.22
COc1ccc(N2CCN(C(=O)C(NC(=O)c3c(F)cccc3F)C(C)C)CC2)cc1 (configuration not stated),i,-1.41
CCc1ccc(CN2CCCC(C(=O)Nc3ccc(-c4cscn4)cc3)C2)o1 (configuration not stated),i,0.9
COc1ccc(-c2cc(-c3ccccc3)c(C#N)c(S(C)=O)n2)cc1 (configuration not stated),i,0.14
CC1CCCCN1C(=O)CCn1c(=O)oc2ccccc21 (configuration not stated),i,0.44
CCc1ccc(NC(=O)C(=O)NCCN2CCN(Cc3ccc([N+](=O)[O-])cc3)CC2)cc1,i,1.33
COc1cccc(N2CCN(C(=O)c3ccc(CS(=O)c4ccccc4Cl)o3)CC2)c1 (configuration not stated),i,-0.68
C=CCn1c(SCC(=O)N2CCN(c3ccc(F)cc3)CC2)nnc1-c1ccco1,i,1.31
COc1ccccc1N1CCN(CCCCOc2ccc(C)cc2C)CC1,i,1.32
Cc1ccc(C(=O)N2CCN3C(=O)c4ccccc4C23c2ccccc2)cc1 (configuration not stated),i,-0.36
CCOC(=O)c1c(-c2ccccc2)csc1NC(=O)CCN1CCOCC1,i,0.38
Cc1cc(/C=N/NS(=O)(=O)c2ccc(F)c(Cl)c2)no1,i,-2.79
COCCCC1CCN(C(=O)C2CCC(=O)N(CCc3cccc(F)c3)C2)CC1 (configuration not stated),i,-0.36
COc1ccc(S(=O)(=O)N2CCCCCC2)cc1C(=O)OCc1cccc(OC)c1OC,i,-0.18
COc1ccc(NC(=O)CCn2cccc2)c(OC)c1,i,0.53
COc1cc(/C=N/NC(=O)CCn2c3ccccc3c3ccccc32)cc(OC)c1OC,i,1.4
COc1ccc(NC(=S)NCCc2ccccc2)c(C)c1,i,-0.18
c1cnc2ccc(C(c3nnnn3C3CCCC3)N3CCSCC3)cc2c1 (configuration not stated),i,0.8
COc1ccccc1-c1nc(C#N)c(N2CCN(c3ccccc3)CC2)o1,i,-0.48
O=S(=O)(Nc1ccc2c(c1)OCO2)c1cccs1,i,2.03
CCN(CC)C(=O)Oc1ccnc2cc(Cl)ccc12,i,-1.1
CCOc1ccc(NC(=S)NC(C)CCc2ccccc2)cc1 (configuration not stated),i,-1.28
COc1cc(CN2CCSCC2)c([N+](=O)[O-])cc1OC,i,-0.13
COc1cccc(-c2nn(-c3ccccc3)cc2C(=O)OCC(=O)Nc2ncc(Cl)cc2Cl)c1,i,-3.03
Cc1cc(C)c[n+](CC(=O)c2ccc(C)c([N+](=O)[O-])c2)c1,i,0.08
COc1ccc(C(CNC(=O)c2cccc(NS(=O)(=O)c3ccc(Br)cc3)c2)N(C)C)cc1 (configuration not stated),i,1.3
COc1ccc(CNC(=O)COc2cccnc2[N+](=O)[O-])cc1,i,-0.45
COc1ccc(C(NC(=O)c2ccc(F)cc2)c2ccccc2)cc1 (configuration not stated),i,0.17
O=S(=O)(NCCCc1ccccc1)c1ccccc1,i,0.57
COc1cccc(NS(=O)(=O)c2nc3nc(C)cc(C)n3n2)c1,i,1.28
Cc1ccccc1OCCN1CCC(Cc2ccccc2)CC1,i,-0.91
Cc1cc(C(=O)CC#N)c(C)n1-c1ccc(OC(F)F)cc1,i,-0.38
Cc1cc[n+](-c2ccccc2)c2ccccc12,i,0.08
O=C(NCc1ccco1)c1cc(-c2ccccc2)c(N2CCOCC2)s1,i,1.16
COC(=O)c1onc(-c2c(Cl)cccc2Cl)c1C(=O)OC,i,0.08
O=S1(=O)CCN(Cc2cccc(C(F)(F)F)c2)CC1,i,2.05
CCCCCCSc1ccc([C@@H]2[C@H]3C(=O)N(C)C(=O)[C@H]3[C@]3(C(=O)OC)CCCCN23)cc1,i,-0.96

# 16 entries from above, with two lines to a compound:
# Below each SMILES – KCNQ2 inh | KCNQ2 inh baseline
CCOc1ccc(NC(=S)NC(C)CCc2ccccc2)cc1 (configuration not stated)
 : i | -1.28
COc1cc(CN2CCSCC2)c([N+](=O)[O-])cc1OC
 : i | -0.13
COc1cccc(-c2nn(-c3ccccc3)cc2C(=O)OCC(=O)Nc2ncc(Cl)cc2Cl)c1
 : i | -3.03
Cc1cc(C)c[n+](CC(=O)c2ccc(C)c([N+](=O)[O-])c2)c1
 : i | 0.08
COc1ccc(C(CNC(=O)c2cccc(NS(=O)(=O)c3ccc(Br)cc3)c2)N(C)C)cc1 (configuration not stated)
 : i | 1.3
COc1ccc(CNC(=O)COc2cccnc2[N+](=O)[O-])cc1
 : i | -0.45
COc1ccc(C(NC(=O)c2ccc(F)cc2)c2ccccc2)cc1 (configuration not stated)
 : i | 0.17
O=S(=O)(NCCCc1ccccc1)c1ccccc1
 : i | 0.57
COc1cccc(NS(=O)(=O)c2nc3nc(C)cc(C)n3n2)c1
 : i | 1.28
Cc1ccccc1OCCN1CCC(Cc2ccccc2)CC1
 : i | -0.91
Cc1cc(C(=O)CC#N)c(C)n1-c1ccc(OC(F)F)cc1
 : i | -0.38
Cc1cc[n+](-c2ccccc2)c2ccccc12
 : i | 0.08
O=C(NCc1ccco1)c1cc(-c2ccccc2)c(N2CCOCC2)s1
 : i | 1.16
COC(=O)c1onc(-c2c(Cl)cccc2Cl)c1C(=O)OC
 : i | 0.08
O=S1(=O)CCN(Cc2cccc(C(F)(F)F)c2)CC1
 : i | 2.05
CCCCCCSc1ccc([C@@H]2[C@H]3C(=O)N(C)C(=O)[C@H]3[C@]3(C(=O)OC)CCCCN23)cc1
 : i | -0.96

# Continued.
SMILES,KCNQ2 inh,KCNQ2 inh baseline
CC1(c2nnc(Cc3ccccc3)o2)CC(c2cccc(Cl)c2)=NO1 (configuration not stated),i,0.68
Cc1[nH]c2ccccc2c1/C=N/NC(=O)c1cccc(F)c1,i,-1.67
O=C(Cc1cccs1)N(Cc1cccs1)C1(C(=O)NC2CCCCC2)CCCCC1,i,-0.55
COc1ccc(NC(=O)N2CCCC(c3nc(-c4ccc(F)cc4)no3)C2)cc1 (configuration not stated),i,0.11
Cn1c(=O)oc2cc(S(=O)(=O)N3CCCCC3)ccc21,i,1.59
CCOC(=O)C1C(=O)CC(C)(O)C(C(=O)OCC)C1c1ccc(NC(C)=O)cc1 (configuration not stated),i,0.58
CCN(CC)CCNC(=O)c1ccc(-n2c(C)cc3c2CCCC3=O)cc1,i,0.34
COC(=O)c1ccc(CSc2ncnc3c2oc2ccccc23)o1,i,1.29
COc1ccc(-c2nc(C3CCCCC3)c3cc(OC)ccc3n2)cc1,i,2.35
CCOC(=O)c1ccccc1NC(=O)C1=COCCO1,i,-0.28
O=c1c2ccccc2ncn1-c1ccc(Cl)c(Cl)c1,i,-0.28
CCCCCC(=O)NC(NC(=S)Nc1ccc(S(N)(=O)=O)cc1)C(Cl)(Cl)Cl (configuration not stated),i,2.52
COC(=O)c1c(C)oc(C)c1S(=O)(=O)N(C)C1CCCCC1,i,0.55
CCN(CC)S(=O)(=O)c1ccc(-c2nnc(SCC(=O)Nc3nnc(C)s3)n2CC)cc1,i,-2.78
Clc1ccc(Cc2noc(CN3CCN(c4ccccc4)CC3)n2)c(Cl)c1,i,0.09
Cn1c(CCc2nc3ccccc3[nH]2)nnc1SCC#N,i,0.49
Cc1cc(C)c(S(=O)(=O)Nc2ccc3c4c(cccc24)CC3)c(C)c1,i,-1.35
Cc1cc(C)cc(NC(=O)CCCn2nc(C)c3c(C)n(-c4ccccc4)nc3c2=O)c1,i,-1.53
O=C1SCC(c2ccccc2)=NN1Cc1ccccc1,i,0.68
CC(NC(=O)CCC(=O)c1cccs1)c1ccccc1 (configuration not stated),i,0.01
CCOc1cc(N(CC)CC)ccc1/C=C(/C#N)c1nc2ccccc2[nH]1,-8.4*,3.1*

# Some of the compounds tested. The share of hits here may be higher or lower than overall.
